# Bioassay records from PubChem.
# VACV mCherry inh: qHTS for Stage-Specific Inhibitors of Vaccinia Orthopoxvirus: mCherry Reporter Primary qHTS; 310,000 tested, 0.63% active; Potency, µM (series often up to 36.5 µM), for the others: top-dose activity change, negative = inhibition, hits mostly inhibitors; Vaccinia virus mCherry reporter infection, fluorescence; about a quarter of the inactives have no number; active = well fitted inhibition curve with a large enough effect; inconclusive = small, poorly fitted or top-dose-only effect; inactive = no such curve, though single readings can be large or run the other way; tested in A549 cells; further: nearly all actives have a fitted effect of over 35% in size; inactives centre near -10
# VACV Venus inh: qHTS for Stage-Specific Inhibitors of Vaccinia Orthopoxvirus: Venus Reporter Primary qHTS; Vaccinia virus Venus reporter expression, fluorescence; Potency, µM (titrated, usually from 36.5 µM), for the others: at the highest dose activity change, negative = inhibition, usual class: inhibitors; 330,000 tested, 0.46% active; active means well fitted inhibition curve with a large enough effect; inconclusive means small, poorly fitted or top-dose-only effect; inactive means no such curve, though single readings can be large or run the other way; tested in A549 cells; further: nearly all actives have a fitted effect of over 30% in size; inactives centre near -10
# An asterisk follows results filed as active; i = inactive; ? = inconclusive; . = not tested or not shown; [ ] = another dose, or the depositor's remark. On the % scale 0 is the no-effect control and ±100 the full control effect; potency means the concentration at half of the fitted maximal effect.
SMILES,VACV mCherry inh,VACV Venus inh
CCOC(=O)N1CCN(C(c2cccnc2)c2ccc3cccnc3c2O)CC1 (configuration not stated),?,-18%
CCCc1nc2oc3c(OCC)ncnc3c2c2c1COC(C)(C)C2,i,-11%
CC(/C=N/NC(=O)c1nnn(-c2nonc2N)c1CN1CCCCC1)c1ccccc1 (configuration not stated),6%,3%
CCOC(=O)[C@H]1[C@H]2COc3ccc(Cl)cc3[C@@H]2N2C(=O)c3ccccc3NC(=O)[C@@]12C,-26%,-19%
Cc1ccc2c(NC(=S)NC(=O)c3ccccc3)cccc2n1,-14%,-1%
CCOC(=O)c1ccc(NC(=O)CS(=O)(=O)Cc2nc(-c3ccc(C)cc3)oc2C)cc1,-20%,-20%
CCN(c1ccc(NC(=O)c2ccc(N3CCCC3=O)cc2)cc1)C(C)C,-29%,-13%
CCNC(=O)C1(C)CCCN(Cc2csc(-c3ccc(Cl)cc3)n2)C1 (configuration not stated),-6%,-17%
O=Cc1ccc(OC(=O)c2cccnc2)cc1,i,11%
CC1CCN(c2nn3c(=O)c(C(=O)NCCCOC(C)C)cnc3s2)CC1,-7%,-5%
CN1CCc2c(sc3c2c(=O)n(-c2cccc(Cl)c2)c2nncn32)C1,-6%[1.46 µM],0%
Cc1cc(Nc2nc3ccccc3c3nnc(C)n23)ccc1Br,-13%,-10%
C=CCOc1c2ccc(C(=O)NC3CCCc4ccccc43)cc2nn1C (configuration not stated),i,-17%
c1nc(N2CCNCC2)c2cc(-c3ccc4c(c3)OCO4)ccc2n1,-14%,-2%
CC1Cc2ccccc2N1C(=O)COC(=O)Cn1nnc(-c2ccccc2)n1 (configuration not stated),.,-3%
Cc1ccc(CN2C(=O)c3ccccc3C2c2nnnn2-c2c(C)cccc2C)cc1 (configuration not stated),13%,-10%
N#CCC(=O)NC1CCC(CC2CCC(NC(=O)CC#N)CC2)CC1 (configuration not stated),i,-15%
Cc1ccccc1NC(=O)C1CCN(S(=O)(=O)c2cccs2)CC1,-11%,-6%
Cc1cnc(NC(=O)C2CC=CCC2)s1 (configuration not stated),-1%,3%
COc1ccc(-n2[nH]c(C)cc2=O)cc1,.,-13%
CCN(C(=O)C1CC1)C1CCS(=O)(=O)C1 (configuration not stated),-7%,-8%
Cc1ccc(N(CC(=O)NCc2ccc(OC(C)C)cc2)S(=O)(=O)N(C)C)cc1,-20%,-16%
COc1cc(S(=O)(=O)n2ccnc2)ccc1Br,i,-14%
COc1cc2c(cc1OC)C(COc1ccc3c(C)cc(=O)oc3c1)N(C(=O)C(C)C)CC2 (configuration not stated),-21%,-14%
Cc1cccc(/C=N/NC(=O)c2ccc(Br)cc2)c1,-2%,-13%
COCCCNC(=O)c1ccc2nc(CCc3ccccc3)oc2c1,-17%,-17%
CCOC(=O)c1cc(-c2ccc3c(c2)OCCO3)nc2c1c(C)nn2CCC#N,.,?
O=C(NC1CCCCC1)c1cc([N+](=O)[O-])ccc1N1CCCCC1,-10%,-6%
CN(C(=O)c1cccc(NC(=O)Cc2ccc(NC(=O)C3CCCN(C(=O)C4CCCC4)C3)cc2)c1)C1CCC1 (configuration not stated),-2%,-21%
O=C(C1CC1)N1CCc2cc(S(=O)(=O)NCCC3=CCCCC3)ccc21,-16%,-15%

# Entries of single compounds, quoted from the list. Order of values: VACV mCherry inh | VACV Venus inh
# CCCc1nc2oc3c(OCC)ncnc3c2c2c1COC(C)(C)C2 across the screens: i | -11%
# CCOC(=O)c1ccc(NC(=O)CS(=O)(=O)Cc2nc(-c3ccc(C)cc3)oc2C)cc1 across the screens: -20% | -20%
# CCOC(=O)N1CCN(C(c2cccnc2)c2ccc3cccnc3c2O)CC1 (configuration not stated) across the screens: ? | -18%
# C=CCOc1c2ccc(C(=O)NC3CCCc4ccccc43)cc2nn1C (configuration not stated) across the screens: i | -17%

# More compounds.
SMILES,VACV mCherry inh,VACV Venus inh
CC1CCCCN1CCNC(=O)c1cc2c(=O)n(C)c3ccccc3c2n1C (configuration not stated),-7%,-14%
C/C=C(\C)C(=O)OC1[C@@H]2C=C3C4CC(=O)OC(c5ccoc5)[C@]4(C)CCC3[C@@](C)(C2=O)C(C(O)C(=O)OC)C1(C)C (some centres not stated),-15%,-6%
O=c1c2ccccc2nc2c3ccccc3c3nncn3n12,-21%,-1%
CC1Cc2cc(C(=O)O)ccc2O1 (configuration not stated),.,-3%
COc1ccc(CCNC(=O)Cn2c(-c3nonc3N)nc3ccccc32)cc1OC,-11%,-12%
c1ccc2nc(NN=C3CCCCC3)ccc2c1,-19%,-9%
CC(C(=O)O)N(C(=O)c1ccccc1)c1ccc(F)cc1 (configuration not stated),5%,5%
Cc1cccc(N2CCN(C(=O)c3cc4ccccc4oc3=O)CC2)c1C,?,-14%
CCCCC1OC2(C)OC(=N)C1(C#N)C(C#N)(C#N)C2c1ccccc1 (configuration not stated),-11%,1%
Cn1c2ccccc2c2c(C(=O)N3CCN(C(=O)c4ccco4)CC3)cn(C3CCCCC3)c(=O)c21,?,-25%
CC(C)(C)C(=O)Nc1ccc(S(=O)(=O)N2CCCC2)cc1,-10%,-7%
NC(=O)c1ccc2nc(NC(=O)c3ccc(N)cc3)sc2c1,-4%,-19%
COCCOC(=O)c1c(NC(=O)CNC2CCCc3ccccc32)sc(C(N)=O)c1C (configuration not stated),i,0%
COC(=O)Cc1c(C)c2ccc3c(c2oc1=O)CN(Cc1ccc(C)cc1)CO3,i,-11%
CN(Cc1ccccc1)S(=O)(=O)c1nnc(NC(=O)c2ccccc2Cl)s1,-11%,-8%

# Pulled by compound from the list above (5):
SMILES,VACV mCherry inh,VACV Venus inh
Cc1cccc(N2CCN(C(=O)c3cc4ccccc4oc3=O)CC2)c1C,?,-14%
CC(C)(C)C(=O)Nc1ccc(S(=O)(=O)N2CCCC2)cc1,-10%,-7%
CC1CCCCN1CCNC(=O)c1cc2c(=O)n(C)c3ccccc3c2n1C (configuration not stated),-7%,-14%
COC(=O)Cc1c(C)c2ccc3c(c2oc1=O)CN(Cc1ccc(C)cc1)CO3,i,-11%
c1ccc2nc(NN=C3CCCCC3)ccc2c1,-19%,-9%

# Further entries:
SMILES,VACV mCherry inh,VACV Venus inh
Cc1cccc(C)c1OCC(=O)NCc1ccccc1,-13%,-19%
CC(C)(C)OC(=O)N1CCC(NC(=O)c2[nH]cnc2C(=O)Nc2ccc(Cl)cc2)CC1,-28%,14µM*
O=C1/C(=C/c2cccs2)SC(=S)N1CCC(=O)N1CCCCC1CCO (configuration not stated),?,-20%
Cc1ccc(-n2nnnc2-c2cccc(C)c2)cc1,-6%,-11%
CC(=O)NC(=O)c1ccc(-c2ccc(Cl)cc2)o1,i,-13%
CC(Sc1nc(-c2ccccc2)cc(C(F)(F)F)n1)C(=O)NCCN1CCOCC1 (configuration not stated),-16%,-6%
Cc1nc(C)c(CCNS(=O)(=O)c2ccc(F)cc2)s1,-3%,-7%
CCOc1ccc(-c2cc(CCCC(=O)Nc3cccc(OC)c3)no2)cc1,-6%,?
C=CCC1(CC=C)CCCN1C(=O)c1cc(COc2ccc(-n3cncn3)cc2)on1,-6%,?
C[C@@H]1[C@H](c2ccccc2)OCCS(=O)(=O)N1Cc1cccc(C(F)(F)F)c1,-15%,-11%
Cc1nn2c(=O)cc(COC(=O)c3cccc(NC(=O)COc4ccccc4Cl)c3)nc2s1,-15%,-12%
CC1CCN(CC(=O)NCCc2ccc(F)cc2)CC1,i,-13%
CCc1ccccc1N(CC(=O)NCc1ccco1)C(=O)CCC(=O)Nc1ccccn1,-14%,-6%
Nc1nc(NCC2CCCO2)nc(Nc2ccc(F)cc2)c1[N+](=O)[O-] (configuration not stated),-16%,-5%
O=C(Nc1ccccn1)C1CCN(S(=O)(=O)c2cccc3nonc23)CC1,.,?
COc1ccc(N2CCN(C(=O)c3ccc4nc(N5CCC(C)CC5)sc4c3)CC2)cc1,-20%,-11%
CN(c1ccccc1)S(=O)(=O)c1cccc(NC(=O)c2ccc(Cl)c([N+](=O)[O-])c2)c1,i,-20%
Cc1cc(C)nc(NC2=NC3CCCCC3N2)n1 (configuration not stated),.,-15%
CC(=O)c1ccc(OCc2nnn(CC(=O)NS(=O)(=O)Cc3ccccc3)c2-c2ccccc2)cc1,12%,6%
CS(=O)(=O)c1ccc(C(=O)Nc2ccc(N3CCCCC3)cc2)c(Cl)c1,i,-15%
Cc1cc(-c2ccc(NC(=O)[C@@H]3CCCC[C@@H]3C(=O)O)c(C)c2)ccc1NC(=O)[C@@H]1CCCC[C@@H]1C(=O)O,-12%,-10%
CC(OC(=O)c1ccccc1NCc1ccco1)C(=O)Nc1ncc(Cl)cc1Cl (configuration not stated),.,-9%
CCN(C1CCCCC1)S(=O)(=O)c1ccc(OC)c(C)c1,.,-14%
CCn1c(=O)cc(SCC(=O)NCc2ccc(F)cc2Cl)c2ccccc21,-5%,9%
Cc1ccc(NC(=O)Cn2cc(S(=O)(=O)Cc3ccccc3)c3ccccc32)cc1C,-19%,?
O=C(COc1ccc(-n2cnnn2)cc1)Nc1ccccc1OC(F)F,i,-6%
CCOC(=O)CCc1c(C)c2ccc(OCC(=O)N3CCOCC3)c(C)c2oc1=O,-22%,-18%
Cc1ccc(-c2csc3nc(=O)c(C)nn23)cc1,-1%,-14%
CC1(C(=O)NCc2ccccc2)CN(S(C)(=O)=O)CC(=O)N1C1CCN(Cc2ccccc2)CC1 (configuration not stated),-21%,2%
O=C(NC(C(=O)N/N=C/c1cccnc1)c1n[nH]c(=O)c2ccccc12)c1ccccc1 (configuration not stated),i,2%
C=C1CC2C(=O)N(Cc3cc(OC)ccc3OC)C(C(=O)OCC)(C(=O)OCC)C1N2C(=O)OC(C)(C)C (configuration not stated),i,-4%
COc1ccccc1C(=O)NCCN=C1NS(=O)(=O)c2ccccc21,-14%,-3%
CCCCC(=O)OC1=C(C(C)=O)N(Cc2ccccc2)S(=O)(=O)c2ccccc21,-5%,-12%
O=C(Nc1cccc(Cl)c1)N1CCN(C2c3ccccc3-c3ccccc32)CC1,-12%,-4%
Cc1ccc(OCCSc2nc3ccc(NC(=O)c4ccc(F)cc4)cc3s2)cc1,-9%,-20%
COc1ccccc1C(=O)Nc1c(C(=O)Nc2cc(Cl)ccc2C)sc2nc(C)cc(C)c12,-1%,9%
c1ccc(-c2nc(-c3ccccn3)no2)cc1,i,-7%
Cc1ccc(S(=O)(=O)N2CCN(C(=O)c3cc4c(s3)CCC(C)C4)CC2)cc1 (configuration not stated),-9%,-12%
Cc1cccc(-n2c(SCc3ccc(C#N)cc3)nnc2-c2c[nH]c3ccccc23)c1,-9%,-24%
Nc1c(C(=O)NCc2ccccc2)nnn1Cc1ccc(F)cc1,-14%,-5%
CCN(CC(=O)Nc1c(F)cccc1F)C(=O)CNC(=O)c1cccc(C)c1,-3%,-17%
O=C(COC(=O)C1CC1)Nc1ccc(Oc2ccccc2)cc1,.,-6%
CCOC(=O)C1=CN(Cc2ccc(Br)cc2)S(=O)(=O)NC1C (configuration not stated),-16%,-19%
COc1ccc(C(=O)CCNc2ccc(C)c(Cl)c2)cc1,i,-7%
O=C(Nc1cccc(C(F)(F)F)c1)C12CC3CC(CC(C3)C1)C2,-4%,-10%
COC(=O)[C@@]12CCCCN1[C@H](c1ccc(-c3ccc(F)cc3)c(OC)c1)[C@H]1C(=O)N(C)C(=O)[C@H]12,-12%,?
CC(=O)N1CCc2c(sc3c2c(=O)n(-c2ccc(C)cc2)c(=O)n3Cc2ccccc2C)C1,-1%,-12%
COc1ccc(Cc2nnc(SC(C)C(=O)Nc3ccc(C(N)=O)cc3)o2)cc1 (configuration not stated),i,-15%
CN(C)c1ccc(N=Nc2ccccc2)cc1,31%[activator],-4%
CC(C)CNC(=O)c1cn(C2CCN(Cc3nc4ccccc4s3)CC2)nn1,i,0%
CCCS(=O)(=O)NC(=O)C1(C)CCCN(C(=O)c2ccc3ccccc3n2)C1 (configuration not stated),11%,14%
CCOC(=O)C1=C(C)N=C2c3ccccc3C(=O)C2C1c1ccc(C)cc1 (configuration not stated),5%,5%
CCOC(=O)C1CCN(C(=O)CN(c2cccc(C(F)(F)F)c2)S(C)(=O)=O)CC1,-6%,-11%
COc1ccc(CC(=O)Nc2ccc(N3CCCC3)c(C)c2)cc1,?,-3%
Cc1ccc(CNC(=O)C2(C(F)(F)F)C/C(=C\Cc3ccccc3)CCCO2)o1 (configuration not stated),i,-12%
O=C(COc1cccnc1[N+](=O)[O-])Nc1ccc(N2CCOCC2)cc1,i,-6%
